# BJeLR viability – kills HRASV12-expressing BJeLR cells; BJeLR (HRASV12) viability, CellTiter-Glo ATP luminescence, 48 h; reference of the scale not given here; inhibition, % (concentration not given with the values); 0.17% of 300,000 active;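 active = replicate mean above 50%; inconclusive = above 50% but judged a plate artefact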;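 note: 50 nL library stock added to about 25 µL; numbers are from one replicate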
# ugtP null kill – compounds lethal to S. aureus RN4220 ugtP deletion mutant | growth inhibition, % (concentration not given with the values) | 0.54% of 330,000 active | OD600 growth, 16 h; some inactives read as strong as hits;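 active = z-score under -3 and OD600 up to 0.15 on both plates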;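 note: plate controls were untreated wells for no effect and antibiotic for full effect; wells of about 80 µL received 100 nL stock; the first replicate is given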
# PrP UTR inh – inhibition of PrP 5' UTR reporter expression | cell-based PrP 5' UTR mRNA reporter, plate reader | inhibition, % (test concentration not listed) | 0.35% of 340,000 active;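 active = every replicate at 50% or more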;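 note: 0 = median of the neutral control wells; tested in H4 reporter cells; numbers are from one replicate; inactives centre near -14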
# Mtb hypoxia rep – Mtb hypoxia fluorescent reporter inhibition | M. tuberculosis hypoxia-regulated fluorescent reporter, fluorescence | fluorescence inhibition, % (test concentration not listed) | 0.1% of 300,000 active | AID 1159583;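 active = 35 to 45% if threefold the growth effect, above 45% if 1.5-fold the growth effect; inactive = the rest, general growth blockers included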;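 note: wells of about 50 µL received 100 nL stock; 0% = vehicle wells and 100% = reference inhibitor wells; whole bacteria with a GFP reporter of the hypoxia response; strong numbers were not always called active; many hits fall short of the cut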
# Bead autofluor – counter-screen for toxin protease inhibitors: compound fluorescence. compound autofluorescence counterscreen, microsphere flow cytometry; stronger effect = higher value. 3.1% of 360,000 active. fluorescence intensity (concentration not given with the values). AID 624483;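 active = at least 3 SD above the mean of all compounds, about 16000 in these data; inconclusive = too few beads counted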;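 note: 100 nL of 1 mM stock went into each well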
# Sa RN4220 lethal – kills Staphylococcus aureus RN4220. S. aureus RN4220 growth, OD600, 16 h. inhibition, % (concentration not given with the values). 0.33% of 330,000 active;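 active = z-score of -3 or lower and OD600 up to 0.18 on both plates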;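 note: plate controls were untreated cells for no effect and reference antibiotic for full effect; stock transfer was 100 nL into about 80 µL; one replicate is shown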
# Mtb hypoxia rep growth – also measured in Mtb hypoxia rep; calls as there; growth inhibition, %; measured here: M. tuberculosis growth (absorbance);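 0% = vehicle and 100% = reference antibiotic; read after six days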
# Starred values were filed as active, the others as inactive; ? = inconclusive; . = not tested or not shown; & = joins results of further samples.
SMILES,BJeLR viability,ugtP null kill,PrP UTR inh,Mtb hypoxia rep,Mtb hypoxia rep growth,Bead autofluor,Sa RN4220 lethal
CCN(CC(=O)Nc1cc(Cl)ccc1C)C(=O)CSCc1ccc(C)cc1,-1,-2,3,11,29,?,2.4
CC(C)(C)n1nnnc1C(c1cccc(C(F)(F)F)c1)N1CCC(O)CC1 (centres undefined),2,9,-5,6,-9,4056,0.2
CC(C)c1ccc(N(CC(=O)NCC2CCCO2)C(=O)CCC(=O)Nc2nccs2)cc1 (centres undefined),14,11,-7,13,19,3822,1.4
Cc1ccc2nc(SC(C(=O)Nc3ccc(F)cc3)c3ccccc3)[nH]c2c1 (centres undefined),-2,1,-14,-1,2,2117,-3.8
O=c1cc(O)c2sc(Nc3ccc(F)c(Cl)c3)nc2[nH]1,-5,26,-12,-6,-6,4600,46
CC1=CC(C)(C(Cl)Cl)C(C)=CC1=O (centres undefined),-2,3,-7,-3,-11,8836,1.7
Cc1ccc(CNC(=O)CN(C2CCCCC2)S(C)(=O)=O)cc1,-8,1,-16,.,.,3963,-1.2
CN1c2ccccc2C(C)(C)C12C=Nc1c(cc(N3CCOCC3)c3ccccc13)O2 (centres undefined),13,.,-16,.,.,2756,.
Cc1cc(C)c(OCC(=O)OCC(=O)N2CCc3ccccc3C2)c(C)c1,-9,0,-3,-11,2,3979,-2.0
CCOC(=O)C1=C(C)NC(=S)N(C(C)=O)C1c1ccc(Cl)cc1 (centres undefined),10,19,-33,3,-2,8335,7.1
COc1ccc(CN2CCCC(C(=O)c3ccc(Cl)cc3)C2)cc1Cn1cncn1 (centres undefined),1,-1,-12,0,19,3983,1.8
O=C(CCC(NC(=O)OCc1ccccc1)C(=O)OCC(=O)N1CCCCC1)OCC(=O)N1CCCCC1 (centres undefined),-3,0,2,-12,1,21055*,1.0
COc1ccc(C(=O)Nc2ccc(CN3CCOCC3)cc2)cc1Br,3,2,-7,-1,-6,2880,-1.1
CN(C)S(=O)(=O)c1cccc(NC(=S)NN=Cc2cc(Br)ccc2O)c1,.,0,.,-2,-10,.,-3.7
O=Cc1cn(-c2ccccc2)nc1-c1cccnc1,-1,-1,-4,8,-6,3140,-6.1
CCCCCCCN1CCC(=O)N(C(CO)c2ccccc2)CC1 (centres undefined),.,2,.,8,5,.,5.7
O=C(CCC(=O)N1CCN(c2ccc(F)cc2)CC1)c1ccc(F)cc1,-7,8,.,19,6,.,3.0
CCc1nc(N=Nc2c(O)[nH]c3ccccc23)c2c3c(sc2n1)CCC3,8,-6,-1,11,-3,2369,7.3
COC(=O)C1=C(c2ccc(F)cc2OCc2ccccc2)CC2CCC1N2C(=O)NCCOc1ccc(OC)cc1 (centres undefined),.,10,.,8,4,.,-8.7
Cc1cc(C)n2nc(SCc3ccccc3)nc2n1,-16,1,-17,5,10,4470,3.5
O=C(Nc1ccccc1Cl)N1CCN(c2ccccn2)CC1,2,5,-29,1,3,8464,4.6
NS(=O)(=O)c1ccc(-c2ccc(C=NC3CCS(=O)(=O)C3)o2)cc1 (centres undefined),10,-4,-19,10,12,10884,7.4
COCCN(C(=S)Nc1ccc(OC)c(Cl)c1)C1CCN(C(C)C)CC1,1,16,-4,2,-4,3547,8.0
O=C(NNC(=S)NC1CCCCC1)c1cccs1,23,2,-7,14,14,7158,5.8
Cc1oc2ccc(OCc3ccccc3F)cc2c1C(=O)O,0,-14,-3,-1,-4,4166,11
COc1ccc2nc(Nc3nc(-c4cc5ccccc5oc4=O)cs3)sc2c1,-10,-4,-36,5,4,2406,4.6
Cc1cccc(NC(=S)NC2CC3CCCC(C2)N3CC(C)C)c1C (centres undefined),-20,8,2,6,8,3720,3.4
CCOc1ccc(N2C(=O)CC(NCc3ccc(F)cc3)C2=O)cc1 (centres undefined),-6,6,-29,18,15,2410,4.9
CCNc1nc(C)nc2c1cnn2C,.,2,-22,-6,-1,3987,0.5
CC(OC(=O)C1CC1)C(=O)Nc1cc(C(F)(F)F)ccc1Cl (centres undefined),-10,0,-28,5,9,4193,-2.5
Cc1ccc([N+](=O)[O-])c(OCCCN2CCC(Cc3ccccc3)CC2)c1,-9,-19,1,-3,3,4101,-5.9
CCCOc1ccc(C(=O)NC(=S)Nc2nc(C)c(C(=O)N(C)C)s2)cc1,3,-22,-14,-3,12,18538*,12
Cc1cnc(=O)[nH]c1SCc1ccc(C(F)(F)F)cc1,9,7,-4,2,0,4848,-3.2
CCOc1ccccc1N(CC(=O)OC)S(=O)(=O)c1ccccc1,-6,1,-15,13,18,9725,5.6
COc1ccc(CNS(=O)(=O)c2ccc(-c3ccc(=O)[nH]n3)s2)cc1OC,-2,3,7,17,4,5990,4.9
CC(C)(C)OC(=O)NN=C/C=C/c1ccc2c(c1)OCO2,.,9,.,16,3,.,9.5
O=C(NC1CCCCC1)c1cc2nc3c(c(C(F)(F)F)n2n1)CCCC3,-1,-2,-24,.,.,6220,-2.8
COc1ccccc1NC(=O)c1ccc(Cl)c(S(=O)(=O)N2CCOCC2)c1,3,-4,-18,-2,3,3210,-0.2
Cc1cccc(C)c1NC(=O)CS(=O)CC(=O)Nc1ccc(F)cc1F (centres undefined),-7,12,-5,14,9,3347,5.3
O=C(Cc1c[nH]c2ccccc12)NCc1ccncc1,6,0,-12,-2,-3,5485,1.9

# A section from the list above:
SMILES,BJeLR viability,ugtP null kill,PrP UTR inh,Mtb hypoxia rep,Mtb hypoxia rep growth,Bead autofluor,Sa RN4220 lethal
COc1ccc2nc(Nc3nc(-c4cc5ccccc5oc4=O)cs3)sc2c1,-10,-4,-36,5,4,2406,4.6
Cc1cccc(NC(=S)NC2CC3CCCC(C2)N3CC(C)C)c1C (centres undefined),-20,8,2,6,8,3720,3.4
CCOc1ccc(N2C(=O)CC(NCc3ccc(F)cc3)C2=O)cc1 (centres undefined),-6,6,-29,18,15,2410,4.9
CCNc1nc(C)nc2c1cnn2C,.,2,-22,-6,-1,3987,0.5
CC(OC(=O)C1CC1)C(=O)Nc1cc(C(F)(F)F)ccc1Cl (centres undefined),-10,0,-28,5,9,4193,-2.5
Cc1ccc([N+](=O)[O-])c(OCCCN2CCC(Cc3ccccc3)CC2)c1,-9,-19,1,-3,3,4101,-5.9
CCCOc1ccc(C(=O)NC(=S)Nc2nc(C)c(C(=O)N(C)C)s2)cc1,3,-22,-14,-3,12,18538*,12

# Further compounds.
SMILES,BJeLR viability,ugtP null kill,PrP UTR inh,Mtb hypoxia rep,Mtb hypoxia rep growth,Bead autofluor,Sa RN4220 lethal
COC(=O)c1ccc(-c2nc(CN3CCC(C(=O)N4CCOCC4)CC3)c(C)o2)cc1,2,5,-14,7,-11,5359,4.3
COc1ccc(OC)c(CCNC(=O)CC2Oc3ccc(C)cc3NC2=O)c1 (centres undefined),.,-3,-3,.,.,6171,3.4
CC(=O)Nc1cc[n+](C(C)C(=O)c2ccc(Br)cc2)cc1 (centres undefined),1,-2,-25,10,6,4497,4.3
Cc1ccc(NC(=O)C2CSC3(C)CCC(=O)N23)cc1S(=O)(=O)N1CCCCCC1 (centres undefined),.,-2,-1,7,17,3690,2.1
COc1ccccc1CNC(=O)c1ccccc1N,1,9,-11,5,9,11136,1.0
CCCN1CCN(C(=O)c2ccc(F)c(S(=O)(=O)N3CCOCC3)c2)CC1,.,1,-12,2,-3,3766,-0.2
CC(=O)NCCc1nc2ccccc2n1Cc1ccc(C)cc1,9,15,-27,3,-3,5860,6.0
O=C1CC(N2CCN(Cc3ccc4c(c3)OCO4)CC2)C(=O)N1c1cccc2ccccc12 (centres undefined),9,6,-10,-6,-2,3810,8.7
O=C(O)CC1S/C(=N/N=C/C=C/c2ccccc2)NC1=O (centres undefined),-5&-5,5,-27&-28,3,2,2076&1880,2.6
CCOc1ccc(N(CC(=O)N2CCCCC2)S(=O)(=O)c2ccc(Cl)cc2)cc1,5,3,-1,6,7,3611,3.3
O=C(C1CCC(CNc2c(N3CCCCC3)c(=O)c2=O)CC1)N1CCN(c2ccccn2)CC1 (centres undefined),1,-9,-22,1,11,5265,4.1
CCOc1ccc(/C(C)=N/NC(=O)C(OC)c2ccccc2)cc1 (centres undefined),-1,.,-10,.,.,3772,.
COc1ccc(NC2CCCN(C(=O)c3ccccc3C(F)(F)F)C2)cc1 (centres undefined),-2,-1,-9,0,-2,5372,-2.2
COc1cc(OC)c(N2CC(C(=O)Nc3cc(Cl)ccc3N3CCOCC3)CC2=O)cc1Cl (centres undefined),.,-12,-12,-16,-1,9158,-5.4
N#CCCc1cccc(CCC#N)c1,-7,-1,-8,6,8,2981,4.9
CC(C)Nc1cc(N2CCCC2)ccc1[N+](=O)[O-],-15,-2,-14,1,0,7415,3.7
O=C(NC=NOCc1ccc(Cl)cc1Cl)NOCc1c(Cl)cccc1Cl,.,-12,.,15,9,.,12
O=C1Nc2ccccc2S/C1=C/c1cccs1,-6,-8,-35,7,2,.,2.5
CC(C)c1ccc(NC(=O)C2CC2c2ccccc2)cc1 (centres undefined),9,2,-17,7,0,4180,-3.0
N#Cc1c(NC(=S)NC(=O)Cc2cccs2)sc2c1CCCCC2,0,87*,-19,6,17,20268*,-5.1
Cc1cc(C)n(CC(=O)NC2CCCCC2C)c(=O)c1C#N (centres undefined),7,-4,-12,-8,3,7282,-2.1
COc1cccc(C(=O)NNC(=O)Cc2csc(N)n2)c1,-1,5,-15,-20,-9,4502,9.1
COc1ccc(NC(=O)N2CCC3(CC2)OCCO3)cc1OC,-4,6,-8,10,11,6258,3.8
CCCCCCn1c(=O)c(C(=O)Nc2nc(CC(=O)OCC)cs2)c(O)c2ccccc21,-9,21,-14,.,.,6324,43
O=C(CCNC(=O)c1ccccc1)N/N=C/c1ccc([N+](=O)[O-])cc1,-5,.,-10,.,.,2320,.
CCN(CC(=O)Nc1ccccc1C(F)(F)F)C(=O)Cc1cccs1,.,-5,-18,-5,-1,6384,-2.9
O=C(O)CC(C(=O)O)n1nc(-c2ccccc2)cc1-c1ccccc1 (centres undefined),1,-4,-39,.,.,4177,-3.4
O=C(NCc1ccccn1)c1n[nH]c2ccccc12,-7,-1,-28,5,4,9243,14
COc1ccc(C(=O)Cn2nnc(-c3ccccc3NC(=O)C3CCCCC3)n2)cc1,-1,5,-21,.,.,3144,0.5
Cc1ccc(C)c(N(CC(=O)NC2CCCC2)C(=O)c2oc(C(C)(C)C)cc2C)c1,-7,-18,-4,-2,1,7129,-19
CCOC(=O)C1(Cc2ccccc2)C(=O)N(CCCN(C)C)c2ccccc21 (centres undefined),-7,2,.,8,-12,5461,1.4
Cc1cn(Cc2ccccc2Cn2cc(C)c(=O)[nH]c2=O)c(=O)[nH]c1=O,4,3,-16,5,8,2974,-0.7
COc1cc(NC(=O)CSc2nnc(NC(C)C)s2)cc(OC)c1OC,-11,-12,-20,-11,9,3254,-3.5
COc1ccc(-c2cc(C(F)(F)F)nc(-n3cncn3)n2)cc1,-4,9,-6,7,-4,3366,0.9
Cc1ccc2c(c1)nnn2C1CCN(CC(=O)Nc2ccc(F)cc2)CC1,3,9,-4,-2,9,3921,3.6
Cc1noc(C)c1COC(=O)Cc1ccc(Br)cc1,1,7,-2,5,0,4624,4.8
CC(=O)Nc1cc(C(=O)NCCN2CCN(Cc3ccccc3)CC2)ccc1Sc1ccc(C)cc1,-5,8,-21,10,2,4269,0.0
O=C(/C=C/c1ccc([N+](=O)[O-])cc1)NCCN1C(=O)S/C(=C\c2ccc(F)cc2)C1=O,0,3,-38,-11,6,4460,-6.4
COc1ccc(NC(=O)Cn2c(C)cc(=O)c3cccc(OC)c32)cc1,-4,-3,-6,0,-5,3278,0.3
O=C1CC(N2CCN(c3nc4ccccc4s3)CC2)C(=O)N1c1cccc(F)c1 (centres undefined),2,-5,-7,6,16,23609*,-2.0
O=C(NN=Cc1cccc(Oc2ccccc2)c1)c1ccncc1,.,5,.,.,.,.,2.3
O=S(=O)(NCc1ccccn1)c1cc(C(F)(F)F)ccc1Cl,4,1,-39,15,7,3810,4.2
CC(/C=C1\NC(=S)NC1=O)=C\c1ccccc1,-5,.,6,.,.,3344,.
CCCC1C2C(=O)N(c3ccccc3OCC)C(=O)C2ON1c1ccccc1 (centres undefined),8,-9,-32,-16,-2,9385,-1.8
O=CN1CCN(c2ncnc3c2nnn3Cc2c(F)cccc2Cl)CC1,4,3,-15,5,8,4811,7.3

# High-throughput results as filed in PubChem.

# Random draw from the library. About 4% of those tested had a hit in this group.
